# High-throughput results (PubChem)
# VCAM-1 up – boosters of cytokine-driven VCAM-1 levels – cell-based, plate reader, pooled HUVEC, TNFa stimulus (AID 455); augmentation, % at 5 µM; HUVEC TNFa-induced VCAM-1 immunofluorescence, plate reader; numbers were filed only for top-ranked candidate wells; hit rate 0.2% among 10,000;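 active means a compound raising TNF-alpha-driven VCAM-1 surface staining, with its hit status upheld on visual or statistical review; inactive means the rest, including hits rejected on review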;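 further: 0% = TNFa with vehicle and 100% = strongest image-checked hit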
# Proteasome disasm – blocks ATP-dependent breakdown of the yeast 26S proteasome. anti-FLAG beads, GFP-proteasome disassembly, flow cytometry. inhibition of disassembly, % (concentration not given with the values). hit rate 0.2% among 24,000;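 active means above 40%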;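 further: plate controls were ATP control with full disassembly for no effect and ATP-gamma-S intact proteasomes for full effect; higher percent means more bead fluorescence retained so stronger block of disassembly; stock transfer was 100 nL into about 10 µL; wells with too few beads may also be inconclusive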
# Active calls of the source: *; i = inactive; / = no result given.
# The opening 3 records as a preview:
VCAM-1 up | Proteasome disasm | smiles
/ | -0.3 | CC1CC(=O)N(CC(=O)NCc2ccc3c(c2)OCO3)c2ccccc2S1 (stereo not given)
/ | -0.2 | CC(C)CN1C(=O)NC(NC(=O)c2cccs2)(C(F)(F)F)C1=O (stereo not given)
/ | -1.7 | CCc1nnc(NC(=O)c2ccc(S(=O)(=O)N(CCOC)CCOC)cc2)o1

# The listing, from the start:
VCAM-1 up | Proteasome disasm | smiles
/ | -0.3 | CC1CC(=O)N(CC(=O)NCc2ccc3c(c2)OCO3)c2ccccc2S1 (stereo not given)
/ | -0.2 | CC(C)CN1C(=O)NC(NC(=O)c2cccs2)(C(F)(F)F)C1=O (stereo not given)
/ | -1.7 | CCc1nnc(NC(=O)c2ccc(S(=O)(=O)N(CCOC)CCOC)cc2)o1
/ | -0.3 | CCN1CCN(C(=O)C(NS(=O)(=O)c2ccc3nc(C)sc3c2)C(C)C)CC1 (stereo not given)
i | 0.9 | COc1cccc(NC(=O)c2nc3nc(C)cc(C(F)F)n3n2)c1
/ | 0.2 | O=C(c1cccc(Cl)c1)N1CCN(C2CCCCCC2)CC1
/ | -0.1 | COc1ccc(-c2noc(N(C)CC(=O)Nc3cccc(C(F)(F)F)c3)n2)cc1
i | -0.5 | Cn1c(Cl)nc2ccccc21
i | -0.9 | Cc1ccc2c(c1)NC(=O)C(CC(=O)NC1CCCCC1C)O2 (stereo not given)
/ | 1.4 | Cc1ccc2c(c1)N(CCCC(=O)NCCCN1CCCC1=O)C(=O)CO2
/ | 1.8 | O=c1cc(N2CCC3(CC2)OCCO3)[nH]c(=O)n1C1CCCCC1
i | 0.0 | Cc1csc2ncc(C(=O)Nc3ccccc3Cl)c(=O)n12
/ | -0.3 | CCN(CCCn1c(=S)[nH]c2ncccc2c1=O)c1ccccc1
/ | 1.9 | O=C1C2CCCN2C(c2ccccc2)N1c1nccs1 (stereo not given)
i | 2.8 | O=C(CN1C(=O)NC2(CCCCCC2)C1=O)N1CCC(Cc2ccccc2)CC1
/ | -1.4 | CCOC(=O)C1CCCN(C(=O)c2ccc3c(c2)NC(=O)C(N2CCOCC2)S3)C1 (stereo not given)
/ | 0.2 | CC(=O)NCC(=O)N(c1c(C)n(C)n(-c2ccccc2)c1=O)C1(C(=O)NC2CCCC2)CCCCC1
/ | -0.6 | CC(C)(C)n1ncc2c(=O)n(CC(=O)N3CCCc4ccccc43)cnc21
/ | -0.2 | O=C(NCCc1ccc(Cl)cc1)C1CCN(S(=O)(=O)c2cccc3nonc23)CC1
i | -0.2 | COc1ccc(OC)c(CNC(=O)COc2cc(=O)n(C)c3ccccc23)c1
/ | 0.2 | COc1cc(NC(=O)CN2C(=O)c3ccccc3S2(=O)=O)c(OC)cc1Cl
/ | 0.4 | COc1ccccc1NC(=O)C1C2C=CC3(CN(Cc4cccnc4)C(=O)C13)O2 (stereo not given)
i | -1.0 | CCOC(=O)C(C)On1c(SC(C)C(=O)OCC)nc2ccccc2c1=O (stereo not given)
i | 12.8 | COc1cccc(OC)c1C(=O)Nc1ccccc1N1CCCC1
i | -1.4 | Cc1ccc2[nH]c(=O)c(-c3noc(-c4ccncc4)n3)cc2c1
i | 1.2 | Cn1c(Cc2ccccc2)nnc1SCC(=O)NC1CCCCC1
/ | -3.1 | Cc1cccc(C)c1NC(=O)Cn1c(=O)n(CCCC(=O)NCc2ccco2)c(=O)c2sccc21
i | 1.0 | O=c1ccn(Cc2ccccc2Cl)cc1
/ | -1.0 | O=C(c1ccc(N2CCCC2=O)cc1)N1CCOCC1
/ | 1.8 | Cc1nc2ccccc2c(=O)n1NCc1cccs1

# Some of the entries above, reformatted.
molecule | VCAM-1 up | Proteasome disasm
O=C(c1ccc(N2CCCC2=O)cc1)N1CCOCC1 | / | -1.0
COc1cc(NC(=O)CN2C(=O)c3ccccc3S2(=O)=O)c(OC)cc1Cl | / | 0.2
COc1ccccc1NC(=O)C1C2C=CC3(CN(Cc4cccnc4)C(=O)C13)O2 (stereo not given) | / | 0.4

# Later entries
VCAM-1 up | Proteasome disasm | smiles
/ | 0.0 | COc1ccc(Br)cc1C1CC(=O)N2CN(C)CSC2=C1C#N (stereo not given)
/ | 2.9 | O=C(NC1CCCCC1)c1nn2c(C(F)(F)F)cc(-c3ccco3)nc2c1Br
/ | -0.7 | CCOC(=O)c1ccc(N=c2sc(C(=O)OC)cc(=O)n2CCCN2CCOCC2)cc1
/ | -2.1 | COc1cccc(N2C(=O)c3ccncc3C2=O)c1
/ | -0.8 | COc1ccc(CCNC(=O)Cn2cnc3c(nnn3Cc3ccc(C)cc3)c2=O)cc1OC
/ | 0.0 | Cc1cc(S(=O)(=O)NC2CCCCC2)c(C)s1
/ | 1.4 | O=C(CN1CCN(Cc2ccccc2F)C1=O)NCCN1CCOCC1
/ | -0.6 | NC(=O)CN1CCCN(S(=O)(=O)c2ccc(Br)cc2)CC1
/ | -0.9 | O=C(O)C1CCCN(S(=O)(=O)c2cccc3cccnc23)C1 (stereo not given)
/ | 0.3 | CCCN(CCC)C(=O)Cn1ccc(=N)c2ccccc21
i | 1.2 | COc1cc(C(=O)Nc2cc(Cl)ccc2C)c(-n2cnnn2)cc1OC
/ | 1.2 | COc1ccc(C2C=C(c3ccc(C)c(C)c3)Nc3ncnn32)c(OC)c1OC (stereo not given)
/ | 0.1 | Cc1sc(NC(=O)c2ccco2)c(CN2CCN(c3ccccn3)CC2)c1C
/ | -2.1 | COc1ccc(-c2cnnn2-c2ccc(NC(=O)c3ccco3)cc2)cc1OC
i | -0.3 | CCOc1ccc(-c2nc(C#N)c(N3CCCCCC3)o2)cc1
i | 2.8 | CCNc1oc(COc2cccc(C)c2)nc1C#N
/ | 1.5 | O=C(NCc1cccs1)C1CCCN(S(=O)(=O)c2cnc[nH]2)C1 (stereo not given)
i | -1.2 | O=C(Nc1ccc(N2CCCC2=O)cc1)c1cccc(F)c1
i | 2.2 | CCc1ccccc1N1C(=O)C2CC(C)=C(C)CC2C1=O (stereo not given)
/ | -2.1 | CCOc1ccc(-c2cc(C(=O)NCCCN3CCN(CC)CC3)c3ccccc3n2)cc1

# Record cards, as listed above.
# Cc1sc(NC(=O)c2ccco2)c(CN2CCN(c3ccccn3)CC2)c1C is listed as VCAM-1 up = /; Proteasome disasm = 0.1
# CCOc1ccc(-c2nc(C#N)c(N3CCCCCC3)o2)cc1 is listed as VCAM-1 up = i; Proteasome disasm = -0.3

# Next compounds.
VCAM-1 up | Proteasome disasm | smiles
/ | 0.6 | CC1CN(Cc2nc3c(c(=O)[nH]c(=O)n3C)n2CCCc2ccccc2)CC(C)O1 (stereo not given)
/ | 0.3 | CCOC(=O)N1CCC(N(CCOC)C(=O)Nc2ccc(Cl)c(Cl)c2)CC1
i | -0.4 | CC(C)(C)c1ccc(C(O)CCCN2CCC(C(O)(c3ccccc3)c3ccccc3)CC2)cc1 (stereo not given)
i | -5.7 | O=C(CSCc1n[nH]c(=O)[nH]1)NCCOc1cccc(Oc2ccccc2)c1
/ | -0.5 | O=C1c2ccccc2C(O)N1Cc1ccccc1Cl (stereo not given)
/ | 0.6 | Cc1conc1NC(c1cccs1)c1ccc2cccnc2c1O (stereo not given)
i | 1.5 | O=S(=O)(NCc1ccco1)c1cccc2cccnc12
/ | -1.3 | Cc1ccc(-c2nc(CS(=O)(=O)CC(=O)N3CCCCCC3)c(C)o2)cc1
/ | -1.1 | O=C(NCCC1=CCCCC1)C1CCN(S(=O)(=O)N2CCOCC2)CC1
/ | 1.6 | Cc1cccc(C)c1NC1=NC2(CCCCC2)N=C(N)N1
i | 1.4 | COC(=O)Cc1cc(=O)n(-c2ccccc2)[nH]1
/ | -0.3 | CCOc1ccc(OCC)c(NC(=O)CC2Oc3ccc(C)cc3NC2=O)c1 (stereo not given)
i | -0.8 | CCC(C)OC(=O)C1=C(C)NC2=C(C(=O)C(C(=O)OC)C(C)C2)C1c1ccc(N(C)C)cc1 (stereo not given)
/ | 1.1 | COc1cccc(-c2cc(C(=O)Nc3c(C)nn(Cc4ccccc4C)c3C)no2)c1
i | 0.9 | CCCn1c(SCC(=O)NC(=O)NCc2ccco2)n[nH]c1=O
i | 1.9 | FC(F)(F)COc1nc(N2CCCCC2)nc(N2CCNCC2)n1
/ | -0.2 | CC(CCc1ccco1)NC(=O)CSc1cc(=O)n(C)c2ccccc12 (stereo not given)
/ | 2.2 | CCOC(=O)CSC1=C(C#N)C(c2ccccc2F)C(C(C)=O)=C(C)N1 (stereo not given)
/ | -0.4 | COc1ccc(N2C(=O)CC(c3ccc(OC(C)C)cc3)C2=O)cc1 (stereo not given)
/ | -2.1 | Cn1c2ccccc2c2c(C(=O)NCC3CCCO3)cn(C3CCCC3)c(=O)c21 (stereo not given)
/ | -0.1 | COc1ccccc1-c1cc(C(=O)Nc2ccccc2SC)no1
i | 1.9 | CC1CCCN(C(=O)C23CCC(C)(C(=O)C2)C3(C)C)C1 (stereo not given)
/ | 2.6 | CCOC(=O)N1CCC(NS(=O)(=O)c2cc3c(cc2C)NC(=O)CO3)CC1
/ | -0.3 | COc1ccccc1N1CCN(C(=O)c2ccc(N3CCCC3=O)cc2)CC1
i | 0.0 | COCCn1c(CN(Cc2ccccc2)Cc2ccccc2)nc2c1c(=O)n(C)c(=O)n2C
i | 5.5 | CCN(CCO)C(=O)CC(c1ccccc1)c1cc(Br)ccc1O (stereo not given)
/ | 1.3 | CSc1cccc(NC(=O)c2nnn(Cc3ccccc3)c2N)c1
i | -0.4 | Cc1ccc(C)c2[nH]c(=O)c(CCNC(=O)c3ccc(S(=O)(=O)N(C)C)cc3)cc12
/ | -1.1 | COC(=O)c1cccc(CSc2nnc(-c3ccco3)n2-c2ccccc2)c1
/ | -0.3 | CCC1(C)Nc2ccccc2C(=O)N1O (stereo not given)
i | -0.2 | Cc1ccnc(N2CCN(C(=O)CSc3nc4ccccc4nc3N3CCCCC3)CC2)c1
i | -2.0 | Cc1ccc(S(=O)(=O)N2CCCN(S(=O)(=O)C3CCS(=O)(=O)C3)CC2)cc1 (stereo not given)
i | -0.2 | Cc1c(C(=O)Nc2ccncc2)oc2c1C(=O)CC(C)(C)C2
i | -1.0 | CC(C)(C)OC(=O)N1CCC(C(=O)N2CCCCCC2)CC1
i | -1.3 | Nc1scc(-c2ccncc2)c1Cl
i | 0.4 | COc1ccc(C2CC(c3cccc(C)c3)n3ncnc3N2)cc1 (stereo not given)
i | -1.0 | Cc1nnc(SCC(=O)Nc2nccs2)s1
i | -2.9 | Cc1ccc2nc(C3CCN(CC(=O)N4CCCCCC4)CC3)[nH]c2c1
i | -0.4 | CN(c1ccccc1)S(=O)(=O)c1ccc(C(=O)OCC(=O)NCc2ccco2)cc1
i | 1.6 | COc1cc2c(C)nc(C)c(C#N)c2cc1OC
/ | 1.4 | COc1ccc(N(C(=O)c2ccc(Br)o2)C2C=CS(=O)(=O)C2)cc1 (stereo not given)
/ | 0.4 | Fc1ccc(Br)cc1C1C=C(c2ccc(Br)s2)Nc2ncnn21 (stereo not given)
i | 0.7 | COc1cc(C2c3c(oc4ccccc4c3=O)C(=O)N2c2ccc(C)cn2)ccc1O (stereo not given)
/ | -2.5 | CCN1CCN(CC(O)COc2ccc(C(C)=O)cc2)CC1 (stereo not given)
i | 0.2 | CN1CCc2nc(SCCOc3ccccc3)c(C#N)cc2C1
/ | 0.5 | Cc1nn(Cc2ccccc2)c(C)c1NC(=O)c1cc(-c2cccs2)on1
i | -0.8 | CS(=O)(=O)N(CC(=O)NCCSCc1cccc(Cl)c1)c1ccc2c(c1)OCO2
i | 2.7 | Cc1cc(C2C(C#N)=C(N)SC(N)=C2C#N)c(C)s1
/ | 0.1 | O=C(C1CCCN1S(=O)(=O)c1ccc(Cl)c(Cl)c1)N1CCCCC1 (stereo not given)
/ | -1.7 | COc1ccc(-c2nnc(NC(=O)c3ccc(S(=O)(=O)N4COCC4(C)C)cc3)o2)cc1

# (further entries)
VCAM-1 up | Proteasome disasm | smiles
/ | -0.4 | COc1ccc(OC)c(NC(=O)C2CCN(S(=O)(=O)c3c(C)noc3C)CC2)c1
/ | 2.1 | COCCNC(=O)CSc1nc2cc(OC)c(OC)cc2c(=O)n1Cc1ccco1
/ | 0.3 | CCC(=O)N1CCc2cc(Br)cc(S(=O)(=O)NCCN3CCCCC3CC)c21 (stereo not given)
/ | -1.3 | CCOC(=O)C(Cc1ccccc1)NS(=O)(=O)c1ccc(NC(C)=O)cc1 (stereo not given)
/ | 0.9 | COc1ccccc1N1CCN(C(=O)c2cc(-c3ccc4c(c3)OCO4)on2)CC1
/ | -0.2 | O=C(c1ccc(C(=O)N2CCN(c3ccccc3F)CC2)nc1)N1CCN(c2ccccc2F)CC1
/ | 0.1 | CCOC(=O)C1=C(C)Nc2ncnn2C1c1cc(Br)ccc1F (stereo not given)
i | -1.2 | O=C(NCCCN1CCCC1=O)c1ccc2c(c1)NC(=O)C(N1CCOCC1)S2 (stereo not given)
/ | -0.1 | CCOc1cc2[nH]c(=O)n(CCc3ccc(OC)c(OC)c3)c(=O)c2cc1OCC
/ | -0.4 | O=C(c1ccccc1)N1CC(COc2ccccc2)OC(c2cccnc2)O1 (stereo not given)
/ | -4.0 | Cc1ccc(-c2noc(CN(C(=O)C34CC5CC(CC(C5)C3)C4)C(C)C)n2)cc1
/ | 7.2 | COC(=O)c1nnn(CC(=O)Nc2cccc(Cl)c2C)c1C(=O)OC
i | 0.1 | Cc1cccc(N(C)C(=O)c2cc3cc4ccc(C)cc4nc3o2)c1
/ | 0.0 | CCOC(=O)CNC(=O)CN1C(=O)CCS(=O)(=O)c2ccccc21

# Part of the list above in order of SMILES length, low to high.
VCAM-1 up | Proteasome disasm | smiles
/ | -0.5 | O=C1c2ccccc2C(O)N1Cc1ccccc1Cl (stereo not given)
/ | -0.4 | COc1ccc(N2C(=O)CC(c3ccc(OC(C)C)cc3)C2=O)cc1 (stereo not given)
/ | 2.1 | COCCNC(=O)CSc1nc2cc(OC)c(OC)cc2c(=O)n1Cc1ccco1
/ | 0.9 | COc1ccccc1N1CCN(C(=O)c2cc(-c3ccc4c(c3)OCO4)on2)CC1

# Not all compounds are listed; the hit share may differ from the screen's.
